Source: PubChem
LASV entry inh = blocks Lassa virus binding to or entry into cells; actives 1.2% (n = 300,000); Lassa virus pseudotype entry inhibition, cell reporter; control for the full effect not named in the record; Potency, µM (series often up to 37.9 µM), for inactives: at the highest dose activity change, negative = inhibition, most hits filed as inhibitors; active means well fitted inhibition curve with a large enough effect; inconclusive means small, poorly fitted or top-dose-only effect, or effect the other way; inactive means flat fitted curve, though single readings scatter; tested in HEK293 cells; note: % is set by controls: 0 for no effect and ±100 for the full control effect; nearly all actives have a fitted effect of over 50% in size; luciferase read-out
NS1 function inh = blocks influenza NS1 protein function; actives 0.4% (n = 270,000); S. cerevisiae slowed by influenza A NS1, growth recovery by OD600; Potency, µM (highest dose often 46.1 µM), without a hit: at the highest dose activity, positive = more growth; active means well fitted rising curve with a large enough effect; inconclusive means small, poorly fitted or top-dose-only effect; inactive means no such curve, though single readings can be large or run the other way; note: nearly all actives have a fitted effect of over 50% in size
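Compounds were scored for reversing the slow growth caused by influenza A NS1 in S. cerevisiae, measured by optical density at 600 nm. Assay medium contained 2% galactose at pH 6.0; NS1-free yeast of the same strain were the positive control.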
MARV entry inh = blocks Marburg virus binding to or entry into cells | AID 540276 | Marburg virus pseudotyped entry inhibition, cell reporter; control for the full effect not named in the record; about a third of the inactives were read at about 46 µM | Potency, µM (series often up to 37.8 µM), inactives show at the top dose activity change, negative = inhibition, hits mostly inhibitors | actives 1.8% (n = 300,000); active = well fitted inhibition curve with a large enough effect; inconclusive = small, poorly fitted or top-dose-only effect, or effect the other way; inactive = flat fitted curve, though single readings scatter; tested in HEK293 cells; about a fifth of its hits are not listed in these tables; note: % is set by controls: 0 for no effect and ±100 for the full control effect; luciferase read-out
Cruzain Triton = blocks cruzain activity in presence of Triton detergent. purified cruzain, Z-FR-AMC fluorescence, 0.01% Triton. P25779. Potency, µM, without a hit: max response, negative = inhibition, hits mostly inhibitors. actives 0.43% (n = 200,000). AID 1478;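 note: plate controls were neutral wells for no effect and buffer without enzyme for full effect; nearly all actives have a fitted effect of over 40% in size; top concentration of the series not given in the record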
Target sequence (P25779 123-467 limits assumed): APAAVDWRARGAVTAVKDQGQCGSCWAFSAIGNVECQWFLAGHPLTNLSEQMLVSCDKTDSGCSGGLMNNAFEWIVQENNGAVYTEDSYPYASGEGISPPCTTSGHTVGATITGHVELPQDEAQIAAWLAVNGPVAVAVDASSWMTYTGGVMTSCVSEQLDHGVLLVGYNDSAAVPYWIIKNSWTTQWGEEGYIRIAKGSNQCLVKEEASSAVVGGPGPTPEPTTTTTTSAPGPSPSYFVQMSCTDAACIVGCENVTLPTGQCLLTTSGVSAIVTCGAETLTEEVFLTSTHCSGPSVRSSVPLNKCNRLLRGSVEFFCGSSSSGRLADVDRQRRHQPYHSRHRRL
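Z-FR-AMC hydrolysis (2 uM substrate) by cruzain (1.5 nM) monitored kinetically at ex 360/em 450 nm after 15 min room-temperature compound exposure; 0.01% Triton X-100, pH 5.5, 5 mM DTT.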
StopGo reporter = FMDV 2A StopGo reporter, luciferase signal | human cells with a luciferase reporter of 2A StopGo recoding; control for the full effect not named in the record | Potency, µM (doses to about 57.9 µM), for inactives: top-dose signal change, negative = less light | actives 1.2% (n = 410,000); active = well fitted falling curve with a large enough effect; inconclusive = small, poorly fitted or top-dose-only effect; inactive = no such curve, though single readings can be large or run the other way; tested in HEK293T cells; note: % is set by controls: 0 for no effect and ±100 for the full control effect; nearly all actives have a fitted effect of over 45% in size; luciferase light after 4 h
RE007 growth inh = less growth of the S. pombe RE007 Vpr strain; S. pombe RE007 Vpr strain, BacTiter-Glo ATP luminescence, 24 h; control for the full effect not named in the record; Potency, µM (highest dose often 92.2 µM), without a hit: at the highest dose activity change, negative = less growth; actives 0.21% (n = 360,000); AID 651644; active = well fitted falling curve with a large enough effect; inconclusive = small, poorly fitted or top-dose-only effect; inactive = no such curve, though single readings can be large or run the other way;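 note: % is set by controls: 0 for no effect and ±100 for the full control effect; nearly all actives have a fitted effect of over 50% in size; the assay follows cell death caused by Vpr and the record does not say whether a fall means rescue or toxicity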
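Fission yeast strain RE007, carrying one chromosomally integrated HIV-1 vpr copy, was seeded at OD 0.01 in PMG+AL medium with 23 nL pinned compound. After 24 h at 30 °C and 99% humidity, viability was read by BacTiter-Glo luminescence.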
Cruzain inh noDet = blocks cruzain activity in detergent-free assay; P25779; purified cruzain, Z-FR-AMC fluorescence, no detergent; Potency, µM, for the others: max response, negative = inhibition, actives largely listed as inhibitors; actives 2.3% (n = 200,000); AID 1476;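 note: plate controls were enzyme without inhibitor for no effect and buffer without enzyme for full effect; nearly all actives have a fitted effect of over 40% in size; top concentration of the series not given in the record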
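Detergent-free condition (0.00005% Triton X-100) in acetate buffer pH 5.5 with DTT. 1.5 nM enzyme and compound were pre-mixed 15 min, then 2 uM Z-FR-AMC substrate added; reaction progress from fluorescence change between first and third reads (60 s).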
SARS PLP yeast = blocks SARS-CoV papain-like protease in a yeast assay; S. cerevisiae expressing SARS-CoV PLpro, growth rescue; control for the full effect not named in the record; Potency, µM (top dose mostly 32.9 µM), without a hit: at the highest dose activity, positive = growth rescue; actives 0.19% (n = 330,000); active means well fitted rising curve with a large enough effect; inconclusive means small, poorly fitted or top-dose-only effect; inactive means no such curve, though single readings can be large or run the other way; note: 0% is about no effect; nearly all actives have a fitted effect of over 55% in size; growth read by luminescence after 48 h
The depositor's hits bear a star; u = inconclusive; x = no result given; & = joins results of further samples; [ ] = remark or other dose. Unless noted, calls come from the whole dose curve; as a rule, active = well fitted curve in the direction sought with a large enough effect; inconclusive = small, poorly fitted or top-dose-only effect, or another doubt; inactive = no such curve, though single readings can be large; an effect the other way counts as inactive or inconclusive. Potency is the fitted concentration of half-maximal effect.

A first look:
SMILES	LASV entry inh	NS1 function inh	MARV entry inh	Cruzain Triton	StopGo reporter	RE007 growth inh	Cruzain inh noDet	SARS PLP yeast
CC1=CC2=NC(=O)/C(=C\c3cc(C)n(-c4ccc(F)cc4)c3C)C(=N)N2O1	1%	3%	-13%	-6.2%	-13%	7%	2%	-11%
Cc1ccc(CNC(=O)Cc2c(C)c3cc4c(C)coc4cc3oc2=O)cc1	1%[46.1 µM]	x	0%[46.1 µM]	-0.9%	-6%	x	3%	x

All compounds of this part, from the first entry:
SMILES	LASV entry inh	NS1 function inh	MARV entry inh	Cruzain Triton	StopGo reporter	RE007 growth inh	Cruzain inh noDet	SARS PLP yeast
CC1=CC2=NC(=O)/C(=C\c3cc(C)n(-c4ccc(F)cc4)c3C)C(=N)N2O1	1%	3%	-13%	-6.2%	-13%	7%	2%	-11%
Cc1ccc(CNC(=O)Cc2c(C)c3cc4c(C)coc4cc3oc2=O)cc1	1%[46.1 µM]	x	0%[46.1 µM]	-0.9%	-6%	x	3%	x
CC1(C)CC(=O)C=C(NNC(=O)c2ccccc2O)C1	-27%[14.3 µM]	25%	-16%	2.0%	-6%	u	-5%	-4%
O=S(=O)(NCCc1ccccc1)c1cccc2nsnc12	11%	2%	3%	0.2%	x	0%	2%	0%
CC(=O)c1ccc(NC(=O)C2CCC(CNS(=O)(=O)c3cccs3)CC2)cc1 (configuration not stated)	31%[46.1 µM]	x	1%[46.1 µM]	-6.6%	-5%	x	4%	x
COc1ccc(Br)cc1S(=O)(=O)NNC(=O)c1c(C)nc2ccccn12	10%	0%	-4%[46.1 µM]	x	-19%	-8%	x	0%
COc1ccc(NC(=O)CN2CCN(CC(=O)Nc3ccccc3Cl)CC2)cc1	-1%	-14%	9%[46.1 µM]	-0.5%	-2%	-9%	3%	u
Cc1ccccc1NC(=O)N1CCc2c(sc3c2CCCC3)C1c1ccccc1 (configuration not stated)	u	x	x	-0.4%	-10%	x	u	x
NN1C(=O)/C(=C\c2ccco2)SC1=S	-4%	-6%	6%[46.1 µM]	x	29%	u	x	-3%
COc1ccccc1NC(=O)Cc1noc(CSc2nnc(C(F)(F)F)n2C)n1	14%	6%	2%	x	-6%	6%	x	1%
COc1cccc2cc(C(=O)NCc3ccc(C)cc3)c(=N)oc12	u	9%	-23%[46.1 µM]	x	12%	0%	x	1%
O=S(=O)(CCN1CCN(c2ccccn2)CC1)c1ccc(Cl)cc1Cl	-4%	-39%	6%	x	-29%	u	x	-5%
COc1ccc(NC(=O)c2ccc3c(c2)C(=O)N(CC2CCCO2)C3=O)c(OC)c1 (configuration not stated)	u	u	u	x	54%[activator]	-14%	x	-2%
CCc1ccc(NC(=O)NC(C)c2ccc3c(c2)OCO3)cc1 (configuration not stated)	u	-8%	u	x	2%	17%	x	0%
COc1ccc(OC)c(C2NC(=O)N(C)C(C)=C2C(=O)OCc2ccccc2)c1 (configuration not stated)	x	-11%	x	x	u	1%	x	0%
Cc1ccc(C)c(N2CCN(S(=O)(=O)c3c(C(=O)N4CCCCC4)c(C)n(C)c3C)CC2)c1	x	-11%	x	x	-17%	13%	x	-5%
Cc1ccc(-c2nc(CN3C(=O)CN=C(c4ccccc4Cl)c4cc(Cl)ccc43)c(C)o2)cc1	1%[46.1 µM]	x	13%[46.1 µM]	-2.9%	-8%	x	9%	x
CCN1CCCC1CNC(=O)c1cc([N+](=O)[O-])c(N(C)C)cc1OC (configuration not stated)	x	27%	x	x	u	5%	x	0%
O=C(O)c1cc(N/N=C/c2ccc(OCc3ccccc3)cc2)ccc1Cl	4%	x	u	x	74%[activator]	-13%	x	-2%
CCOC(=O)N1CCc2c(sc(NCc3cccs3)c2C(=O)Nc2cc(OC)ccc2OC)C1	-6%[46.1 µM]	x	x	-8.3%	29%	x	10%	x
Cc1ccc2c(c1)c(C)c(C)n2CC(O)Cn1nc(C)c(Br)c1C (configuration not stated)	-12%	-81%	u	-12%	-30%	u	-7%	-23%
Cc1ccc(-c2ccccc2NC(=O)CS(=O)CC(=O)Nc2ccc(C)c(Cl)c2)o1 (configuration not stated)	u	-25%	u	x	-6%	-6%	x	-7%
CSCCC(NC(=O)c1ccccc1)C(=O)N1CCN(Cc2ccc(Cl)cc2)CC1 (configuration not stated)	u	x	11µM*	x	u	-14%	x	4%
CS(=O)(=O)N(CC(=O)N1CCCCC1)c1ccc(Cl)c(C(F)(F)F)c1	-1%	8%	4%	5.0%	x	0%	16%	0%
CCOC(=O)C1NN=C(C(=O)c2ccccc2)C1c1ccc(Cl)cc1 (configuration not stated)	x	0%	u	x	-18%	-13%	x	-1%
Clc1nssc1=Nc1ccccc1	-15%	x	u	x	-26%	u	x	1%
O=C(CNC(=O)C(c1ccccc1)c1ccccc1)N/N=C\c1cccc(O)c1	-10%[46.1 µM]	0%	5%[46.1 µM]	x	-10%	-10%	x	-3%
Fc1ccc(/C=N/n2c(-c3cccs3)n[nH]c2=S)cc1	-2%	17%	-15%	0.4%	-4%	-3%	-7%	-25%
CCCCCCSc1nsc(N)n1	13%	-56%	18%[46.1 µM]	-1.3%	54%[activator]	15%	2%	x
Cc1cccc(NC(=O)C2C3C=CC4(O3)C2C(=O)N(CCCN2CCCC2)C4C(=O)NC2CCCC(C)C2C)c1 (configuration not stated)	3%[46.1 µM]	9%	-5%[46.1 µM]	x	-3%	-2%	x	-4%
COCc1cc(C)nc(OCC(=O)N/N=C/c2ccc(O)cc2O)c1C#N	-5%[46.1 µM]	x	-19%[46.1 µM]	x	-15%	-2%	x	17%
Cc1ccccc1C(=O)NNC(=O)C1CCN(c2ncccn2)CC1	6%	4%	u	x	11%	2%	x	0%
Cc1ccc(S(=O)(=O)NCCc2csc(-c3ccc(Cl)cc3)n2)cc1	-29%[46.1 µM]	x	x	-8.7%	-18%	x	7%	x
CN(C)c1cccc(C(=O)NNC(=S)NC2CC3CCC2C3)c1 (configuration not stated)	-3%	x	u	x	35%[activator]	-1%	x	2%
COC(=O)COc1ccc(S(=O)(=O)N2CCN(c3ccccc3)CC2)cc1	-3%[46.1 µM]	-6%	u	x	-1%	-2%	x	0%
S=c1[nH]ccc2ccccc12	5%	x	-1%	x	-12%	8%	x	x
CCCN1/C(=C(/C#N)C2=NS(=O)(=O)c3ccccc32)N(C)c2ccccc21	-19%	-4%	2%	-3.0%	x	-11%	-7%	1%
Cc1nc(NS(=O)(=O)c2ccccc2C)c2c3c(sc2n1)CCC3	-2%	-1%	-4%	-9.4%	22%	2%	u	-25%
O=C1Nc2ccc(F)cc2C12Nc1ccccc1-c1nnc(SCc3ccccc3)nc1O2 (configuration not stated)	-1%	-10%	2%	-4.0%	x	-11%	-7%	-16%
Cc1oc2c(C)c3oc(=O)c4c(c3cc2c1C)CCC4	u	-12%	4%	-1.0%	20%	1%	1%	2%
COc1ccc(Nc2ncnc3c2cnn3C)c(OC)c1	29%[46.1 µM]	x	x	-0.1%	-7%	x	-2%	x
CCOP(=O)(OCC)C(NC(=O)c1cccs1)C(F)(F)F (configuration not stated)	-4%[46.1 µM]	x	5%[46.1 µM]	x	-10%	5%	x	0%
COc1ccc(NC(=O)c2ccccc2C)c(OC)c1	9%[14.3 µM]	-109%	-10%	6.6%	21%	10%	-15%	-1%
CC(C)OC(=O)CSc1ncnc2c1cnn2Cc1ccccc1	8%	-47%	u	-1.0%	-13%	-11%	3%	-3%
COc1cccc(C2CC(=O)Nc3n[nH]c(-c4ccccc4)c32)c1OC (configuration not stated)	u	1%	-1%[46.1 µM]	x	5%	-8%	x	1%
Cc1cccc(-c2noc(CCCC(=O)N3CCOCC3)n2)c1	-5%	-5%	12%	1.1%	8%	-10%	7%	-4%
CC(C)(C)n1nc2c(c1NC(=O)Cc1cccs1)CSC2	x	12%	6%	5.9%	x	x	-11%	5%
COc1ccc(OC)c(CCNC(=O)CCCc2nnc3n(C)c(=O)c4sccc4n23)c1	-4%&23%[46.1 µM]	3%	u	1.2%	-2%&-11%	-28%	-6%	-2%
Cc1cccc(N2CCN(C(=O)/C=C/c3cccs3)CC2)c1C	u	x	u	-9.3%	-20%	-18%	-3%	-70%
Cn1cc(CN2CCN(c3ncccn3)CC2)c(-c2cccc(Cl)c2)n1	u	-5%	u	x	u	10%	x	0%
O=S(=O)(c1ccc(F)cc1)N1CC=C(c2ccccc2)CC1	x	-7%	x	x	-20%	1%	x	0%
Cc1ccc(S(=O)(=O)CCC(=O)Nc2cccc(C)c2)cc1	1%	-2%	4%	-0.3%	7%	-7%	-3%	19%
COc1ccc(Cl)cc1NC(=O)Cn1nnc2sc3c(c2c1=O)CCC(C(C)(C)C)C3 (configuration not stated)	13%[46.1 µM]	x	5%[46.1 µM]	-0.4%	-13%	x	6%	x
COc1ccc(N2CC(NC(=O)Cc3cccs3)CC2=O)cc1OC (configuration not stated)	6%[46.1 µM]	x	x	-0.6%	-4%	x	-1%	x
COc1ccc(NC(=O)CSc2nc(SC)ns2)cc1	-4%[46.1 µM]	-3%	u	x	29%	1%	x	-2%
CCC(=O)N1CCN=C1SCc1cccc(C(F)(F)F)c1	x	-1%	x	x	-29%	-21%	x	3%
c1ccc2[nH]c(NN=C3CCCCCC3)nc2c1	27%	x	-21%[46.1 µM]	x	-22%	-3%	x	24%
CCC(C)NC(=O)CSc1nnc(-c2c[nH]c3ccccc23)o1 (configuration not stated)	1%	x	10%[46.1 µM]	x	21%	-2%	x	1%
CCCSC1=C(C#N)C(c2ccccc2C)CC(=O)N1 (configuration not stated)	-15%	14%	u	1.4%	u	14%	-3%	5%
CCOc1ccc(NC(=O)c2ccc3c(c2)CCN3S(=O)(=O)c2ccc(Cl)cc2)cc1	x	x	u	-2.0%	0%	x	u	x
Cc1nn(-c2ccccc2)c2nc(C3CC3)cc(C(=O)Nc3ccccc3F)c12	-12%[46.1 µM]	x	x	-3.7%	-14%	x	u	x
CCOC(=O)CN(C(=O)COc1ccc2c(C)cc(=O)oc2c1)c1ccc(OCC)cc1	10%[46.1 µM]	-2%	-1%[46.1 µM]	x	-6%	8%	x	1%
